# MLL AF4-AF9 inh: MLL-AF4/AF9 protein interaction inhibition; AlphaScreen, biotin-AF4 peptide binding to FLAG-AF9; inhibition, % at 10 µM; hit rate 0.47% among 350,000; AID 651704;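 active = every replicate reaching a set inhibition limit, whatever the replicate mean, cut at about 25% in these data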;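 also: 0% = plate neutral control median and 100% = total signal loss; the record names both 10 and 1 µM as test concentration; the first replicate is given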
# Target sequence (P42568 whole entry, looked up): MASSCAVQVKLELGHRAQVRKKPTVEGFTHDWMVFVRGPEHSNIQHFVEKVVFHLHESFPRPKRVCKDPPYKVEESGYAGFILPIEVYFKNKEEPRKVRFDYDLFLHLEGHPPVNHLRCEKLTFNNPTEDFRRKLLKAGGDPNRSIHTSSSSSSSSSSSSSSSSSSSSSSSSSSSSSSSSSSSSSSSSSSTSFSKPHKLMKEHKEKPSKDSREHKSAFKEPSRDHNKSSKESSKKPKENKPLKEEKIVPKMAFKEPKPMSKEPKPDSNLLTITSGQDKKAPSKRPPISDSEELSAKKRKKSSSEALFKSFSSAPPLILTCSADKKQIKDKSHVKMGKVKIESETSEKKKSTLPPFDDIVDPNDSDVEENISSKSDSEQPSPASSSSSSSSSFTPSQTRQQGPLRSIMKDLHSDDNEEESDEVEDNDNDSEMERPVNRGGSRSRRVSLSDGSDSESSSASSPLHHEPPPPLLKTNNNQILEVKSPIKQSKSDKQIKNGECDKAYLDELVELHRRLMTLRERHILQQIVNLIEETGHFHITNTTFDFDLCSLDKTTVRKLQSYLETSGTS
# Numbers without * were called inactive.
SMILES | MLL AF4-AF9 inh
COc1ccccc1C#Cc1cnc2c(c1)C(=O)N([C@@H](C)CO)C[C@@H](C)[C@@H](CN(C)C)O2 | 4.9
C[C@@H]1CCCCO[C@@H](CN(C)S(=O)(=O)c2ccccc2)[C@H](C)CN([C@@H](C)CO)C(=O)c2cc(NC(=O)C3CCCCC3)ccc2O1 | 0.3
CCCCCCCCN1C(=O)[C@@H](CC(=O)N2CCC(c3ccccc3)CC2)C[C@@]2(C(=O)OC)C1=C[C@H](C(C)(C)C)O[C@@H]2C | -1.2
Cc1ccc(CNC(=O)CN2C(=O)NC3(CC(C)CC(C)(C)C3)C2=O)cc1 (stereo not given) | -0.3
CCCS(=O)(=O)NC(=O)C1(C)CCN(C(=O)COc2ccc(Cl)cc2Cl)C1 (stereo not given) | -3.3
CC(=O)C1CCC2C(CCC3=CC(=O)CCC32)C1 (stereo not given) | -4.8
COCC(=O)N(C)C[C@H]1[C@H](c2ccccc2)[C@@H](CO)N1C(=O)NC(C)C | -1.6
CC(=NOC(=O)c1ccc(Cl)cc1)c1nccs1 | -10
COCC(=O)N(C[C@@H]1N[C@@H](CO)[C@H]1c1ccc(-c2ccccc2)cc1)C(C)C | 1.8
OC(c1cc(Cl)cc(Cl)c1)c1ncc(-c2ccccc2F)[nH]1 (stereo not given) | 0.7
C[C@H]1CCCCO[C@H](CN(C)Cc2ccc(C(=O)O)cc2)[C@@H](C)CN([C@@H](C)CO)C(=O)c2cc(NC(=O)Cc3ccccc3)ccc2O1 | -1.9
O=S(=O)(Cc1ccccc1)N1[C@@H]2CNC[C@H]1C2c1ccc(-c2ccccc2)cc1 (stereo not given in full) | -2.6
C[C@@H]1CN([C@@H](C)CO)C(=O)c2cc(NC(=O)C3CC3)ccc2O[C@H]1CN(C)Cc1ccc(Oc2ccccc2)cc1 | 5.9
Cc1ccccc1S(=O)(=O)N1CC(=O)N2[C@@H](CO)[C@H](c3ccc(C#Cc4ccccc4)cc3)[C@@H]2C1 | -5.4
COCC(=O)Nc1ccc2c(c1)C(=O)N(C)[C@H]1CC[C@@H](CC(=O)NCCCN(C)C)O[C@H]1CO2 | -16
C[C@H]1CN([C@@H](C)CO)S(=O)(=O)c2ccc(-c3cccc(C(=O)N(C)C)c3)cc2O[C@@H]1CN(C)C(=O)Nc1ccc(F)cc1 | 2.7
O=C(Nc1ccc(F)cc1)N[C@H]1CC[C@H](CCn2cc(-c3ccc(F)cc3)nn2)O[C@@H]1CO | -20
COc1ccc(S(=O)(=O)N(C)C[C@@H]2OCCCC[C@@H](C)Oc3ccc(NC(=O)Nc4c(C)noc4C)cc3C(=O)N([C@@H](C)CO)C[C@H]2C)cc1 | -0.3
C/C=C/c1ccccc1[C@H]1[C@@H](C#N)N(C(C)=O)[C@@H]1CO | -2.5
COc1ccc(OC(=O)N(C)C[C@@H]2OCc3cn(nn3)CCCC(=O)N([C@@H](C)CO)C[C@@H]2C)cc1 | 2.7

# Of the compounds above, three have fluorine.
SMILES | MLL AF4-AF9 inh
OC(c1cc(Cl)cc(Cl)c1)c1ncc(-c2ccccc2F)[nH]1 (stereo not given) | 0.7
C[C@H]1CN([C@@H](C)CO)S(=O)(=O)c2ccc(-c3cccc(C(=O)N(C)C)c3)cc2O[C@@H]1CN(C)C(=O)Nc1ccc(F)cc1 | 2.7
O=C(Nc1ccc(F)cc1)N[C@H]1CC[C@H](CCn2cc(-c3ccc(F)cc3)nn2)O[C@@H]1CO | -20

# 3 entries picked at random from the list so far, as already listed:
SMILES | MLL AF4-AF9 inh
COCC(=O)Nc1ccc2c(c1)C(=O)N(C)[C@H]1CC[C@@H](CC(=O)NCCCN(C)C)O[C@H]1CO2 | -16
CCCS(=O)(=O)NC(=O)C1(C)CCN(C(=O)COc2ccc(Cl)cc2Cl)C1 (stereo not given) | -3.3
O=S(=O)(Cc1ccccc1)N1[C@@H]2CNC[C@H]1C2c1ccc(-c2ccccc2)cc1 (stereo not given in full) | -2.6

# (next part)
SMILES | MLL AF4-AF9 inh
COc1ccc2c3c([nH]c2c1)[C@H](CO)NCC31CCN(C(=O)Nc2ccc(F)cc2F)CC1 | 15
O=C(C1CCOCC1)N1[C@H](CO)[C@@H](c2ccccc2)C12CN(Cc1cccc(Cl)c1)C2 | 4.4
CNC[C@@H]1Oc2cc(C#Cc3cccc(F)c3)ccc2S(=O)(=O)N([C@@H](C)CO)C[C@H]1C | 5.7
COCOCCn1cc(CN2CCS(=O)(=O)N(Cc3ccc(-c4ccncc4)cc3)C(C(C)C)C2=O)nn1 (stereo not given) | -0.3
C[C@@H]1CN([C@H](C)CO)C(=O)Cc2cc(NC(=O)C3CC3)ccc2O[C@H]1CN(C)S(C)(=O)=O | -0.2
O=C(Nc1ccccc1F)N[C@@H]1C=C[C@H](CC(=O)N2CCCCC2)O[C@@H]1CO | -0.4
CC=Cc1ccc2n(c1=O)C[C@@H]1[C@@H](CO)[C@H](C(=O)NCCC)N(Cc3cccnc3)[C@H]21 (mixture of isomers) | 0.0
Cc1cccc(C)c1NC(=O)CN1CCN(C/C=C/c2ccccc2)CC1 | 0.0
COc1ccc(S(=O)(=O)N(C)C[C@@H]2Oc3c(cccc3N(C)C)C(=O)N([C@@H](C)CO)C[C@@H]2C)cc1 | -2.1
Cc1noc(C)c1S(=O)(=O)Nc1ccc2c(c1)CC(=O)N([C@@H](C)CO)C[C@@H](C)[C@@H](CN(C)S(=O)(=O)c1c(C)noc1C)O2 | -4.2
Cc1ccc(S(=O)(=O)NC(=O)C2(C)CCN2C(=O)c2ccccc2CCc2ccccc2)nc1 (stereo not given) | -5.6
Cc1ccc(C)c2c1CCCC2=O | 0.6
C[C@H]1CN([C@@H](C)CO)C(=O)c2cccc(NC(=O)Nc3ccc4c(c3)OCO4)c2O[C@H]1CN(C)Cc1ccc(-c2ccccc2)cc1 | 13
CCC(=O)Nc1ccc2c(c1)C(=O)N(C)[C@H]1CC[C@@H](CC(=O)NCc3ccccc3)O[C@@H]1CO2 | 2.4
Cc1ccccc1S(=O)(=O)NCC[C@@H]1CC[C@H](NC(=O)C2CCOCC2)[C@H](CO)O1 | -5.3
COc1ccc2c3c(n(C)c2c1)[C@@H](CO)NCC31CCN(C(=O)Nc2ccccc2F)CC1 | 12
CCC(=O)N1CCCCN2[C@H](C1)[C@H](c1ccc(-c3cccc(C#N)c3)cc1)[C@@H]2CO | 2.7
COc1ccccc1-c1cnc2c(c1)C(=O)N([C@@H](C)CO)C[C@H](C)[C@@H](CN(C)C(=O)c1ccncc1)O2 | -2.0
C[C@@H]1CN([C@@H](C)CO)C(=O)c2cc(NC(=O)Cn3cnnn3)ccc2O[C@@H]1CN(C)C(=O)Nc1ccc2c(c1)OCO2 | -10
Cc1noc(C)c1S(=O)(=O)Nc1ccc2c(c1)C(=O)N([C@H](C)CO)C[C@@H](C)[C@H](CN(C)C)O2 | -2.1
C[C@@H]1CN([C@@H](C)CO)C(=O)Cc2cc(NS(C)(=O)=O)ccc2O[C@H]1CN(C)C(=O)Nc1ccc(C(F)(F)F)cc1 | 4.8
C[C@H](CO)N1C[C@H](C)[C@H](CN(C)Cc2ccc(C(=O)O)cc2)Oc2ccc(NS(=O)(=O)c3ccccc3)cc2CC1=O | -4.7
CN1CCN(C(=O)C[C@@H]2CC[C@H]3[C@@H](COc4ccc(NC(=O)c5ccc(F)c(F)c5)cc4C(=O)N3C)O2)CC1 | -0.5
CN(C)C1CN(Cc2cn(Cc3ccc(F)cc3)nn2)S(=O)(=O)C1 (stereo not given) | -1.9
Cn1nccc1-c1coc2c(C(=O)NCC3CCOCC3)cccc12 | -0.5
C[C@@H]1CN([C@@H](C)CO)C(=O)c2cccc(NS(=O)(=O)c3ccccc3)c2O[C@@H]1CN(C)C | -2.9
O=C(C[C@@H]1C=C[C@@H](NS(=O)(=O)c2ccc(F)cc2)[C@H](CO)O1)N1CCN(c2ccccc2)CC1 | -1.8
COc1ccc(S(=O)(=O)N(C)C[C@@H]2Oc3c(NC(=O)c4cc(C)nn4C)cccc3C(=O)N([C@@H](C)CO)C[C@@H]2C)cc1 | -21
COc1ccccc1CNC(=O)C[C@@H]1C[C@H]2c3cc(NC(=O)CN(C)C)ccc3O[C@H]2[C@H](CO)O1 | -2.5
CC(C)CC1NC(=O)c2cccnc2-n2c1nc1cc(F)c(F)cc1c2=O (stereo not given) | 2.1
CCCN1C[C@H](C)[C@@H](OC)CN(C)C(=O)c2cc(NC(=O)Nc3c(C)noc3C)ccc2OC[C@H]1C | -0.6
COCC(=O)N1CC[C@@H]2[C@H](CO)Nc3ccc(C#Cc4ccc(F)cc4)cc3[C@@H]21 | -0.7
C[C@H](CO)N1C[C@H](C)[C@@H](CN(C)Cc2ccccn2)Oc2ncc(C3=CCCC3)cc2C1=O | -4.2
CC(=O)N1CC2(C1)[C@H](c1ccc(-c3ccc(F)cc3)cc1)[C@H](CO)N2C(C)=O | -0.1
COc1ccccc1NC(=O)N(C)C[C@@H]1Oc2cc(Br)ccc2S(=O)(=O)N([C@H](C)CO)C[C@@H]1C | -3.4
C[C@@H]1CN([C@H](C)CO)C(=O)c2cc(NS(=O)(=O)c3ccccc3)ccc2O[C@@H](C)CCCCO[C@@H]1CN(C)CC1CCCCC1 | 3.2
CCCCCCCCN1C(=O)[C@@H](CC(=O)N2CCSCC2)C[C@@]2(C(=O)OC)C1=C[C@H](C1CCCC1)O[C@@H]2C | -0.9
COc1ccc(NC(=O)N(C)C[C@@H]2Oc3cc(C#CCC(C)C)ccc3S(=O)(=O)N([C@@H](C)CO)C[C@@H]2C)cc1 | 5.5
COc1ccc(NC(=O)N(C)C[C@H]2Oc3ccc(NC(=O)C4CC4)cc3CC(=O)N([C@H](C)CO)C[C@@H]2C)cc1 | -16
Cc1c(C(=O)OC(C)C)sc(NC(=O)c2cnccn2)c1C(=O)OC(C)C | 0.9
O=C(c1cccc(F)c1)N1CC2(C1)[C@H](c1ccccc1)[C@H](CO)N2C(=O)C1CCOCC1 | -1.4
C[C@H]1CN([C@@H](C)CO)C(=O)c2c(c3ccccc3n2C)-c2ccccc2CO[C@H]1CN(C)Cc1cccc(C(=O)O)c1 | -4.0
COc1cccc(CNc2nc(NCc3cccs3)nc3ccsc23)c1 | -3.7
CO[C@@H]1CN(C)C(=O)c2cc(NC(=O)c3ccccc3F)ccc2OC[C@H](C)N(C)C[C@H]1C | -2.4
CCC(=O)N1[C@H](C(=O)NC2CCC2)[C@@H](CO)[C@@H]2Cn3c(ccc(C4=CCCC4)c3=O)[C@@H]21 | 0.3
C/C=C/c1ccc2c(c1)[C@@H]1[C@@H](CCN1S(=O)(=O)c1ccccc1C)[C@H](CO)N2 | 14
CN(C)CCCNc1nc2cc(-c3ccn[nH]3)sc2c(=O)n1C | -4.5
C[C@H]1CN([C@@H](C)CO)C(=O)c2cc(C3=CCCC3)cnc2O[C@@H]1CN(C)C(=O)c1ccccn1 | -11
CN(C)c1ccc(-c2ccnc3c2CC(C)(C(=O)Nc2cccc(OC(F)(F)F)c2)O3)cc1 (stereo not given) | 5.2
CS(=O)(=O)N1CC(=O)N2[C@H](CO)[C@H](c3ccc(C#CCc4ccccc4)cc3)[C@@H]2C1 | 0.4
CCCC#Cc1ccc2c(c1)O[C@H](CN(C)Cc1cccnc1)[C@@H](C)CN([C@@H](C)CO)S2(=O)=O | 5.1
CCCNC(=O)N1[C@@H]2CN(C(=O)c3cccnc3)c3ccccc3[C@@H]2[C@@H]1CO | -1.3
CN(C)CCCNC(=O)C[C@@H]1CC[C@H]2[C@@H](COC[C@H](O)CN2S(=O)(=O)c2ccccc2)O1 | -2.2
O=C(C[C@H]1CC[C@@H](NC(=O)CCN2CCCCC2)[C@H](CO)O1)NCc1ccc(Cl)c(Cl)c1 | 1.6
C[C@@H]1CCCCO[C@@H](CN(C)C(=O)NC2CCCCC2)[C@H](C)CN([C@@H](C)CO)C(=O)c2cc(NS(=O)(=O)c3cn(C)cn3)ccc2O1 | -2.7
CCCNC(=O)[C@@H]1[C@@H](CO)[C@@H]2Cn3c(ccc(-c4ccc(F)cc4)c3=O)[C@H]1N2CCC | -10
COc1ccc(S(=O)(=O)Nc2cccc3c2O[C@@H](CN(C)C(=O)Nc2c(C)noc2C)[C@@H](C)CN([C@@H](C)CO)C3=O)cc1 | -2.9
CO[C@H]1CN(C)C(=O)c2cc(NC(=O)C3CCC3)ccc2OC[C@@H](C)N(C(=O)NC(C)C)C[C@H]1C | -0.9
C[C@H]1CN([C@@H](C)CO)C(=O)c2cc(C#CC3(O)CCCC3)cnc2O[C@@H]1CN(C)Cc1ccccc1 | 0.7
O=C(C[C@H]1C[C@@H]2c3cc(NC(=O)C4CCC4)ccc3O[C@@H]2[C@H](CO)O1)NCCN1CCCCC1 | 1.7

# Other results follow:
SMILES | MLL AF4-AF9 inh
CCCC#Cc1ccc([C@H]2[C@@H](CO)N3CCCCN(CC4CC4)C[C@@H]23)cc1 | 7.9
C[C@H]1CN([C@@H](C)CO)C(=O)c2cccc(NS(=O)(=O)c3cn(C)cn3)c2O[C@@H]1CN(C)Cc1ccc2c(c1)OCO2 | 0.3
C[C@@H]1CN([C@H](C)CO)C(=O)c2cccc(NC(=O)C3CCCCC3)c2O[C@@H]1CN(C)Cc1ccc(C(=O)Nc2ccccc2N)cc1 | 2.4
COC(=O)C[C@H]1C[C@@H]2c3cc(N(C)C)ccc3O[C@@H]2[C@@H](CO)O1 | -0.7
C[C@@H]1CN([C@@H](C)CO)C(=O)Cc2cc(NC(=O)Cc3ccccc3)ccc2O[C@H]1CN(C)CC1CCCCC1 | 5.9
COc1ccc(S(=O)(=O)N(C)C[C@@H]2OCc3ccccc3-c3ccccc3C(=O)N([C@@H](C)CO)C[C@@H]2C)cc1 | 0.3
C[C@@H]1CN([C@H](C)CO)C(=O)c2cccc(NC(=O)Nc3ccc4c(c3)OCO4)c2O[C@H]1CN(C)S(=O)(=O)c1ccc(Cl)cc1 | 3.0
CNC[C@@H]1Oc2ccc(NC(=O)Nc3cccc4ccccc34)cc2C(=O)N([C@@H](C)CO)C[C@H]1C | 1.2

# Compound activity as filed in PubChem BioAssay.

# Not all compounds are listed, so the mix of outcomes need not match the whole.
